Screening data as filed in PubChem BioAssay.
MITF inhib = blocks MITF activity. TRPM1 promoter luciferase, luminescence, 24 h. inhibition, % (concentration not given with the values). actives 0.28% (n = 37,000);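 active = most replicates at 85% or more, or half of them and the mean; inconclusive = half reach 85% but not the mean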;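 also: human melanocyte line stably carrying TRPM1 promoter luciferase reporter; 0% = vehicle wells and 100% = a positive control; the first replicate is given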
YB-1 expr inh = YB-1 expression inhibition; U2OS, qRT-PCR YB-1 vs CDIP delta delta Cp, 16 h; active compounds read high; zero = DMSO, each unit about twofold; delta delta Cp (YB-1 minus CDIP) (no concentration beside the values); actives 0.37% (n = 30,000);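 active = delta delta Cp rounded down to an integer at or above 3, about 3 SD of DMSO wells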;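 also: higher means less YB-1 transcript or more CDIP transcript relative to DMSO; stock transfer was 100 nL into about 100 µL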
Hedgehog inh = blocks Sonic Hedgehog signaling; AID 2313; inhibition, % (no concentration beside the values); actives 2.1% (n = 22,000); Shh-LIGHT2 Gli-luciferase reporter, 30 h;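 active = replicate mean of 65% or more; inconclusive = mean lower but half the replicates past it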;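 also: pathway switched on by Shh-conditioned medium diluted 1 in 25 in low serum; 100 nL library stock added to about 40 µL; 0% = median of neutral wells and 100% = positive control level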
PD-1 reversal = reversal of PD-1 mediated T-cell inhibition. primary human CD4 T cells, PD-L1 beads, CellTiter-Glo 96 h. activation, % (concentration not given with the values). 29,000 tested, under 10 active. AID 2316;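 active = replicate mean of 50% or more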;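 also: 0% = median vehicle wells and 100% = positive control; 100 nL library stock added to about 50 µL; numbers are from one replicate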
* = called active by the depositor; ? = inconclusive; · = not tested or not shown. These rows are one share of the data, so the mix of outcomes need not match the whole.

Structure	MITF inhib	YB-1 expr inh	Hedgehog inh	PD-1 reversal
Cc1ccc(-c2ccc(OC(=O)c3ccccc3F)cc2)cc1	-49.6	-0.0972	-18.8	0.1
C[C@@H]1CCCCO[C@@H](CN(C)S(=O)(=O)c2ccccc2)[C@@H](C)CN([C@H](C)CO)C(=O)c2cc(NC(=O)c3ccccc3)ccc2O1	19.0	-0.187	17.9	·
O=C(Nc1ccc(OCc2nc3ccccc3s2)cc1)c1ccc(Cl)cc1	-23.0	·	·	-1.3
C[C@H]1CN([C@@H](C)CO)C(=O)c2cccc(NC(=O)c3ccncc3)c2O[C@@H]1CN(C)S(=O)(=O)c1ccc(F)cc1	-10.0	0.876	-16.3	2.3
CC(=O)Nc1cccc(O)c1	2.7	-0.0236	9.0	·
Nc1nc(N2CCOCC2)ncc1S(=O)(=O)c1ccc(Cl)cc1	9.4	-0.0244	-16.4	0.2
CO/N=C(/C(=O)N[C@@H]1C(=O)N2C(C(=O)O)=C(COC(C)=O)CS[C@H]12)c1csc(N)n1	9.0	0.0136	-24.6	·
Cc1ccc(S(=O)(=O)Nc2ccc3c(c2)C(=O)N([C@@H](C)CO)C[C@H](C)[C@H](CN(C)C(=O)NC2CCCCC2)O3)cc1	10.3	-0.272	51.3	0.1
C[C@@H]1CN([C@H](C)CO)C(=O)c2cccc(NC(=O)c3cnccn3)c2O[C@@H]1CN(C)Cc1ccc(C(=O)O)cc1	-4.8	0.169	6.9	2.8
COc1ccc(NC(=O)Nc2ccc3c(c2)CC(=O)N([C@@H](C)CO)C[C@H](C)[C@H](CN(C)C(=O)Nc2ccc(C(F)(F)F)cc2)O3)cc1	0.7	0.0772	40.1	·
CNC[C@@H]1Oc2c(NC(=O)NC(C)C)cccc2C(=O)N([C@@H](C)CO)C[C@H]1C	-6.7	-0.331	?	0.4
COc1ccc(NC(=O)N(C)C[C@@H]2Oc3ccc(NC(=O)c4ccncc4)cc3C(=O)N([C@H](C)CO)C[C@@H]2C)cc1	1.6	-0.103	-21.1	-1.5
CC1(C)Cc2nc3nc(SCC(=O)c4ccc(Br)cc4)n(-c4ccccc4)c(=O)c3cc2CO1	14.8	·	·	-3.8
CC(C)NC(=O)Nc1ccc2c(c1)C(=O)N([C@@H](C)CO)C[C@H](C)[C@H](CN(C)C(=O)Nc1ccc(C(F)(F)F)cc1)O2	-0.5	0.254	2.7	-0.7
Cc1ccccc1-c1nc(S(=O)(=O)c2ccc(Br)cc2)c(NCc2cccnc2)o1	33.2	·	·	-2.2
O=C(COc1ccccc1[N+](=O)[O-])Nc1ccc2oc(=O)ccc2c1	-30.7	·	·	0.5
Cc1noc(C)c1NC(=O)N(C)C[C@@H]1Oc2ccc(N(C)C)cc2C(=O)N([C@H](C)CO)C[C@H]1C	-0.1	0.217	19.7	·
COc1ccc(-c2cc(C(F)(F)F)nc(SCC(=O)Nc3ccc(C)cc3)n2)cc1	20.0	·	·	-1.4
COc1ccccc1NC(=O)CSc1nc2nc(C)cc(C)c2c(=O)[nH]1	8.6	·	·	0.6
C[C@H]1CN([C@@H](C)CO)C(=O)c2cc(NC(=O)Cc3cn(C)c4ccccc34)ccc2O[C@@H]1CN(C)S(=O)(=O)c1cccs1	16.4	0.266	·	1.5
C[C@H]1CN([C@@H](C)CO)C(=O)Cc2cc(NC(=O)Nc3ccccc3)ccc2O[C@@H]1CN(C)C(=O)Nc1ccc2c(c1)OCO2	-6.5	-0.241	·	0.3
O=C(CSc1nnc(Nc2ccccc2)n1-c1ccccc1)Nc1ccccc1Cl	7.3	·	·	-2.2
COc1ccc(NC(=O)CSc2nnc(-c3ccccc3)n2-c2ccccc2)c([N+](=O)[O-])c1	-8.6	·	·	-1.0
Cc1cc(N(CC(=O)Nc2ccc3c(c2)OCCO3)S(C)(=O)=O)ccc1Br	-2.4	·	·	0.5
COc1ccc(NC(=O)N(C)C[C@@H]2Oc3ccc(NC(=O)c4ccncc4)cc3CC(=O)N([C@H](C)CO)C[C@@H]2C)cc1	0.3	0.353	-26.4	-0.9

(next part)
Structure	MITF inhib	YB-1 expr inh	Hedgehog inh	PD-1 reversal
Cc1ccc(C(=O)Cn2c(C)csc2=Nc2ccccc2)cc1	-9.1	-0.434	·	-0.7
COc1ccc(NCC(C#N)C(=O)NCc2ccc(Cl)cc2)cc1 (stereo not drawn)	28.5	-0.578	?	-0.2
C[C@H]1CN([C@@H](C)CO)C(=O)c2cccc(NC(=O)C3CCOCC3)c2O[C@H]1CN(C)S(=O)(=O)c1cn(C)cn1	-3.9	-0.0286	-9.4	·
COCCNC(=O)c1ccccc1NC(=O)c1ccco1	4.8	·	·	0.2
COc1ccc(CN(C)C[C@H]2Oc3c(NC(=O)c4cc(C)nn4C)cccc3C(=O)N([C@H](C)CO)C[C@@H]2C)cc1	-10.9	0.22	32.4	-1.5
Cn1nnnc1SCC(=O)Nc1ccc(F)c(F)c1	-31.4	·	·	0.5
C[C@H](CO)N1C[C@H](C)[C@@H](CN(C)Cc2ccc(C(=O)O)cc2)Oc2ccc(NC(=O)CCN3CCOCC3)cc2C1=O	-5.3	-0.314	-16.0	-0.1
Cc1nc(-c2ccccc2)sc1C(=O)C1C(=O)C(=O)N(CCN(C)C)C1c1cccc([N+](=O)[O-])c1 (stereo not drawn)	1.9	·	·	1.5
O=C(CSc1nnc(Cc2ccccc2)o1)N1c2ccccc2Sc2ccccc21	2.6	·	·	-1.3
C[C@H](CO)N1C[C@H](C)[C@H](CN(C)Cc2ccc(C(=O)Nc3ccccc3N)cc2)Oc2ccc(NS(=O)(=O)c3ccc(Cl)cc3)cc2C1=O	7.1	-0.584	·	0.7
C[C@H]1CN([C@@H](C)CO)C(=O)c2cc(NC(=O)Cn3cnnn3)ccc2O[C@H]1CN(C)CC1CCCCC1	-6.2	-0.506	·	0.1
C[C@H]1CN([C@@H](C)CO)C(=O)c2cc(NC(=O)Nc3ccccc3)ccc2O[C@@H]1CN(C)S(=O)(=O)c1cccs1	-5.4	0.296	-30.9	0.2
C[C@@H]1CN([C@H](C)CO)C(=O)Cc2cc(NS(C)(=O)=O)ccc2O[C@@H]1CN(C)S(=O)(=O)c1ccc(F)cc1	1.5	0.11	22.0	·
C[C@H]1CN([C@@H](C)CO)C(=O)c2cccc(NC(=O)c3cnccn3)c2O[C@@H]1CN(C)Cc1ccc(-c2ccccc2)cc1	-7.3	-0.216	-25.6	-0.4
O=C(CSc1nnc(-c2ccccc2)n1-c1ccccc1)Nc1ccc(Br)cc1	-12.0	·	·	-1.3
C[C@@H]1CN([C@@H](C)CO)C(=O)Cc2cc(NS(=O)(=O)c3ccccc3)ccc2O[C@@H]1CN(C)S(C)(=O)=O	-11.8	0.203	3.8	2.1
C/C=C(/C)C(=O)O[C@@H](C)[C@@](C)(O)C(=O)O[C@H](C)[C@@H](OC(=O)/C(C)=C\C)c1cc(OC)c2c(c1)OCO2	45.4	-1.3	89.3*	-1.2
CCC(C)CCCCCCCCC1CC(=O)NC(CCC(N)=O)C(=O)NC(CC(C)C)C(=O)NC(CC(C)C)C(=O)NC(C(C)C)C(=O)NC(CC(=O)O)C(=O)NC(CC(C)C)C(=O)NC(C(C)C)C(=O)O1 (stereo not drawn)	29.3	0.91	8.0	1.0
COc1cc(OC)nc(NCC(NC(=O)c2ccccc2)C(N)=O)n1 (stereo not drawn)	8.5	0.364	-10.5	1.5
COc1ccc(NC(=O)Nc2cccc3c2O[C@H](CN(C)C(=O)Nc2ccc(C(F)(F)F)cc2)[C@@H](C)CN([C@H](C)CO)C3=O)cc1	-18.4	-0.516	-22.0	·
C[C@@H]1CCCCO[C@@H](CN(C)C(=O)Nc2ccccc2)[C@@H](C)CN([C@H](C)CO)C(=O)c2cc(N(C)C)ccc2O1	2.5	-0.401	·	·
COC(=O)Cc1c(/C(Cl)=C/C(=O)O)oc2cc(C)cc(O)c2c1=O	-3.2	0.154	-5.3	-1.1
CC(C)CC(C(=O)c1ccccc1)c1ccccc1 (stereo not drawn)	-13.5	-0.466	-21.8	-0.1
COc1ccc2c(c1)O[C@@H]1COc3cc(OC)c(OC)cc3[C@@H]1C2=O	109.5*	-0.215	32.4	·
COc1ccc(NC(=O)N(C)C[C@H]2Oc3ccc(NC(=O)Cn4cnnn4)cc3CC(=O)N([C@@H](C)CO)C[C@H]2C)cc1	-3.6	-0.61	-18.9	·

Complete entries as entered above:
Listed for CC(C)CC(C(=O)c1ccccc1)c1ccccc1 (stereo not drawn) = MITF inhib = -13.5; YB-1 expr inh = -0.466; Hedgehog inh = -21.8; PD-1 reversal = -0.1
Listed for O=C(CSc1nnc(Cc2ccccc2)o1)N1c2ccccc2Sc2ccccc21 = MITF inhib = 2.6; YB-1 expr inh = ·; Hedgehog inh = ·; PD-1 reversal = -1.3

Remaining list, next part
Structure	MITF inhib	YB-1 expr inh	Hedgehog inh	PD-1 reversal
CNC[C@@H]1Oc2c(NC(=O)C3CC3)cccc2C(=O)N([C@@H](C)CO)C[C@H]1C	9.1	-0.155	-21.8	·
C[C@H]1CN([C@@H](C)CO)C(=O)c2cc(NC(=O)Cc3cn(C)c4ccccc34)ccc2O[C@H]1CN(C)S(=O)(=O)c1ccc(Cl)cc1	44.2	-0.0078	9.3	-2.4
COc1ccc(N(CC(=O)Nc2ccc(I)cc2C)S(C)(=O)=O)cc1Cl	-2.6	·	·	2.1
CCn1c(SCC(=O)Nc2cccc(SC)c2)nnc1-c1ccc(Cl)cc1	-13.2	·	·	1.2
C[C@@H]1CN([C@H](C)CO)C(=O)c2cc(NC(=O)Nc3ccc(F)cc3)ccc2O[C@H]1CN(C)CC1CCCCC1	-4.8	0.0194	17.1	0.6
Cc1noc(C)c1S(=O)(=O)Nc1ccc2c(c1)C(=O)N([C@H](C)CO)C[C@H](C)[C@@H](CN(C)C(=O)C1CCCCC1)OCCCC[C@@H](C)O2	6.7	0.273	5.6	-2.8
CC(=O)N(O)CCCCCNC(=O)CCC(=O)N(O)CCCCCNC(=O)CCC(=O)N(O)CCCCCN	-3.2	-0.398	-44.1	·
O=C1CCCCCN1CP(=O)(O)CN1CCCCC1	-4.1	-0.39	·	0.8
O=C(NCCCN1CCOCC1)c1cccnc1	-11.5	·	·	2.4
C[C@@H]1CN([C@@H](C)CO)C(=O)Cc2cc(NC(=O)Nc3ccccc3)ccc2O[C@@H]1CN(C)S(=O)(=O)c1ccccc1	2.2	-0.302	-10.0	·
COc1ccc(NC(=O)Nc2ccc3c(c2)C(=O)N([C@H](C)CO)C[C@@H](C)[C@@H](CN(C)S(=O)(=O)c2ccc(C)cc2)O3)cc1	3.4	0.357	-16.7	0.2
COc1cc(Cc2nccc3cc(OC)c(OC)cc23)c(NC(=O)c2cc(F)c(F)cc2Cl)cc1OC	-0.2	·	·	0.2
COC(=O)c1ccc(NC(=O)CSc2nc3ccccc3c(=O)n2-c2ccc(C)cc2)cc1	15.9	·	·	-0.7
C[C@H](CO)N1C[C@H](C)[C@H](CN(C)Cc2ccc3c(c2)OCO3)Oc2ccc(NC(=O)CCC(F)(F)F)cc2CC1=O	11.1	0.236	-3.8	-0.4
C[C@@H]1CN([C@H](C)CO)C(=O)c2cc(NS(=O)(=O)c3ccc(Cl)cc3)ccc2O[C@H]1CN(C)Cc1ccncc1	-10.7	0.256	12.5	0.2
C[C@@H]1CN([C@@H](C)CO)C(=O)c2cccc(NC(=O)C3CC3)c2O[C@H]1CN(C)C(=O)Nc1ccc2c(c1)OCO2	-7.5	0.214	-5.5	0.9
COC(=O)c1cc(OC)c(OC)cc1NC(=O)COc1ccccc1F	-9.8	·	·	-3.7
C[C@H](CO)N1C[C@H](C)[C@@H](CN(C)Cc2ccc(Cl)c(Cl)c2)Oc2c(NC(=O)Nc3ccc4c(c3)OCO4)cccc2C1=O	-8.2	-0.587	-25.5	·
C[C@@H]1CN([C@H](C)CO)C(=O)Cc2cc(NS(=O)(=O)c3cccs3)ccc2O[C@H]1CN(C)S(=O)(=O)c1cccs1	-6.0	0.0569	-0.9	0.8
CCn1c(SCC(=O)c2ccc(Br)cc2)nnc1-c1ccco1	-34.8	·	·	1.4
Cc1noc(C)c1NC(=O)N(C)C[C@@H]1Oc2c(NS(=O)(=O)c3cn(C)cn3)cccc2C(=O)N([C@@H](C)CO)C[C@@H]1C	-3.8	-0.21	-7.3	1.7
C[C@@H]1CN([C@H](C)CO)C(=O)Cc2cc(NS(=O)(=O)c3cccs3)ccc2O[C@H]1CN(C)S(=O)(=O)c1ccccc1	-2.2	-0.512	-15.7	-0.8
O=C(Nc1cc2ccccc2oc1=O)c1ccc(Cl)cc1	32.9	0.114	-88.9	-0.1
Cc1noc(C)c1NC(=O)Nc1ccc2c(c1)C(=O)N([C@H](C)CO)C[C@H](C)[C@@H](CN(C)C(=O)Nc1c(C)noc1C)OCCCC[C@@H](C)O2	6.1	-0.828	-61.3	1.1
Cc1cc(OCC(=O)NCc2ccccn2)c(C)cc1Br	-88.4	·	·	-2.3
C[C@H](CO)N1C[C@H](C)[C@H](CN(C)Cc2ccc(Cl)c(Cl)c2)Oc2ccc(NC(=O)CCN3CCOCC3)cc2C1=O	-13.5	0.0961	22.6	1.0
